Screens from PubChem.
miR-21 FLuc: raises the signal of a miR-21 reporter; AID 2288; 340,000 tested, under 10 active; Potency, µM (series often up to 38.3 µM), inactives show at the highest dose reporter change, positive = more light; HeLa miR-21 FLuc reporter, luciferase, 48 h; active = well fitted rising curve with a large enough effect; inconclusive = small, poorly fitted or top-dose-only effect; inactive = no such curve, though single readings can be large or run the other way;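 also: % of control where 0% means no effect; miR-21 action dims this reporter so a rising signal means less miR-21 action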
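Using DMEM plus 10% FBS, HeLa miR-21-FLuc cells are incubated with test compounds (final up to about 40uM) for 48 hours; firefly luciferase signal is then imaged following reagent-mediated lysis.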
* = called active by the depositor; ? = inconclusive.

miR-21 FLuc,Structure
-0.4%,COc1ccc(Nc2cc(C(=O)NCc3ccccc3)c3ccccc3n2)cc1OC
-44.5%,COc1ccc(-n2nnc(C(=O)Nc3ccccc3F)c2N)cc1
0.3%,COc1ccc(-c2nn(-c3ccc(C)cc3)c3c2cnc2ccc(C)cc23)cc1OC
5.1%,CN(C(=O)c1ccc2c(c1)N(Cc1ccccc1F)C(=O)c1ccccc1S2)C1CCCCC1
-2.4%,Cc1ccc(-n2c(=O)c3ccc(C(=O)NCc4ccccc4Cl)cc3n(CC(N)=O)c2=O)cc1
-20.7%,N#Cc1c(-n2ncnc2-c2cccc(Br)c2)sc2c1CCCCC2
0.1%,CCOc1ccc(CC(=O)Nc2c(C(=O)Nc3ccc(OC)cc3OC)oc3ccccc23)cc1
-12.8%,COc1ccc2c(CNCc3cccs3)c(C(=O)O)n(Cc3ccccc3)c2c1
-9.0%,Cc1nc(N2CCCC2)ncc1C(=O)NCc1ccccc1Cl
-4.0%,COc1ccc(CCNC(=O)CCCCn2c(=O)c3ccccc3n(Cc3ccccc3)c2=O)cc1OC
-16.1%,COc1ccc2c(c1)NC(c1ccc(F)cc1)=NC(c1ccc(F)cc1)=N2
4.2%,CCOC(=O)C1CCCN(C(=O)Cn2ncc3c(C)n(Cc4ccc(Cl)cc4)c(C)c3c2=O)C1 (stereo not drawn)
0.5%,O=S(=O)(NCCc1csc2nc(-c3ccccc3)nn12)c1ccc(Cl)s1
10.0%,Cc1ccc(CNC(=O)c2cc(S(=O)(=O)N3CCCCCC3)cn2C)cc1
-2.1%,COc1ccc(NC(=O)c2cn3c4c(ccc(Cl)c4c2=O)OC(C)C3)cc1OC (stereo not drawn)
-3.5%,Fc1ccc(NCc2nnc3n2CCCCC3)cc1Cl
4.1%,Cc1ccc(C)c(Cn2c(=O)n(-c3ccc(Cl)cc3)c(=O)c3c(C)c(C)sc32)c1
?,CCOc1ccccc1NC(=O)CSc1cc(=O)n(CC)c2ccccc12
-29.5%,O=c1oc2c3c(ccc2c2ccccc12)OCN(Cc1ccccc1Cl)C3
-4.6%,COc1ccc(N2CCN(C(=O)c3cccn3-c3nnc(N4CCCC4)s3)CC2)cc1

In the list so far, these have a thiophene ring, fused or not.
miR-21 FLuc,Structure
-20.7%,N#Cc1c(-n2ncnc2-c2cccc(Br)c2)sc2c1CCCCC2
-12.8%,COc1ccc2c(CNCc3cccs3)c(C(=O)O)n(Cc3ccccc3)c2c1
0.5%,O=S(=O)(NCCc1csc2nc(-c3ccccc3)nn12)c1ccc(Cl)s1
4.1%,Cc1ccc(C)c(Cn2c(=O)n(-c3ccc(Cl)cc3)c(=O)c3c(C)c(C)sc32)c1

Copied from the list.
miR-21 FLuc result of `O=c1oc2c3c(ccc2c2ccccc12)OCN(Cc1ccccc1Cl)C3` : -29.5%
miR-21 FLuc result of `COc1ccc(CCNC(=O)CCCCn2c(=O)c3ccccc3n(Cc3ccccc3)c2=O)cc1OC` : -4.0%

(continued)
miR-21 FLuc,Structure
-5.4%,Cc1cc(C)cc(NC(=O)COCc2cc(-c3ccc4c(c3)OCO4)on2)c1
-2.3%,O=C(NCC(c1ccc(Cl)cc1)N1CCCCC1)c1ccccc1F (stereo not drawn)
19.2%,Cc1ccc(N(CC(=O)N2CCN(c3cc(C)ccc3C)CC2)S(=O)(=O)c2c(C)nn(C)c2C)cc1
-0.2%,Cc1ccc(C)c(NC(=O)C(=O)NCCc2csc3nc(-c4ccccc4C)nn23)c1
29.1%,CCn1nc(-c2ccccc2)c(-c2ccccc2)c(C(=O)Nc2ccccc2C#N)c1=O
-11.7%,COc1ccc(NC(=O)c2ccc(CNS(=O)(=O)c3ccc4c(c3)C(C)(C)C(=O)N4C)cc2)cc1
0.5%,Cc1ccc(NC(=O)Cn2c(=O)n(Cc3ccccc3)c(=O)c3sc4ccccc4c32)cc1
-3.7%,CCc1ccc(C(=O)c2cn(CC(=O)Nc3cc(OC)ccc3OC)c3ccc(Cl)cc3c2=O)cc1
-10.7%,Cc1cc(C)cc(NC(=O)c2cccc(N3CCCS3(=O)=O)c2)c1
0.4%,O=C(Nc1ccc(Cl)c(C(F)(F)F)c1)C(Cc1ccccc1)NS(=O)(=O)c1ccc(Br)s1 (stereo not drawn)
-4.7%,CCC(=O)N1CCc2cc(CNS(=O)(=O)c3cc(Cl)ccc3OC)ccc21
-19.0%,O=C(COc1ccccc1F)Nc1c(C(=O)Nc2cccc(F)c2)oc2ccccc12
-1.1%,Cc1ccc2c(=O)cc(C(=O)Nc3sc4c(c3C(=O)NCc3ccco3)CCCC4)oc2c1C
8.7%,Cc1cc(C)cc(NC(=O)CN(C)S(=O)(=O)c2ccc3c(c2)CCC(=O)N3)c1
-1.5%,COC(=O)c1ccccc1NC(=O)c1cc2cc(C)ccc2n1C
-8.6%,COc1ccc(CCNC(=O)CCc2c(C)c3ccc(O)c(C)c3oc2=O)cc1
-10.7%,COc1ccc(Cl)cc1NC(=O)C(C)N1Cc2ccccc2C1=O (stereo not drawn)
1.7%,CCOC(=O)c1c(NC(=O)c2cc(=O)c3cc(Cl)ccc3o2)sc(C)c1C
-14.5%,Cc1ccc(C)c(N2CCN(C(=O)c3cc4cc5ccc(C)cc5nc4o3)CC2)c1
?,Cc1ccc(S(=O)(=O)N2CCCc3cc(NS(=O)(=O)c4cc(F)ccc4F)ccc32)cc1
-13.5%,Cc1ccc(NC(=O)C(C)Sc2nc3c(c(=O)[nH]2)CCCC3)cc1Cl (stereo not drawn)
2.9%,CCOc1ccccc1NC(=O)CCCc1nc(-c2ccccc2Cl)no1
-35.5%,COC(=O)c1ccc(Nc2nc(-c3ccc(C)cc3)nc3ccccc23)cc1
0.3%,CCOc1cccc2cc(-c3nnc(Nc4ccc(F)c(Cl)c4)s3)c(=O)oc12
-0.5%,CCN(C(=O)c1c(C)oc2ncn(CC(C)C)c(=O)c12)c1cccc(Cl)c1
-8.5%,CCOc1ccc(Cl)cc1CNCCCSc1nnnn1C
11.0%,Cn1nnnc1SCCCNCc1ccccc1OCc1ccc(Cl)cc1
-1.3%,Cc1ccc(-c2ccc(=O)n(CC(=O)NCCc3ccccc3)n2)cc1
-16.7%,CCOc1ccc(-c2nonc2NC(=O)COc2ccc(C)c(C)c2)cc1OCC
6.3%,CC(C)c1ccc(NC(=O)c2ccc(F)c(S(=O)(=O)N3CCc4ccccc43)c2)cc1
3.2%,CCOc1ccc(NC(=O)[C@@H](c2ccccc2)N2Cc3ccccc3C2=O)cc1
-0.5%,CCOc1ccc(C(=O)CSc2nc3cc(C(=O)NC4CCCC4)ccc3c(=O)n2CC2CCCO2)cc1 (stereo not drawn)
-5.4%,CCOc1ccc(NC(=O)CCc2c(C)nc3c4c(C)cc(C)nc4nn3c2C)cc1
0.4%,O=C(CCC(=O)c1ccc(F)cc1)Nc1ccc(Cl)cc1
5.2%,Cc1sc2c(c1C)c(=O)n(-c1ccc(Cl)cc1)c(=O)n2CC(=O)c1ccccc1
-9.9%,CC1CCN(S(=O)(=O)c2cc3c4c(c2)CC(=O)N4CCC3)CC1
-1.8%,CC1CCN(S(=O)(=O)c2ccc3c(c2)N(CC(=O)NC(C)C)C(=O)CS3)CC1
-0.7%,CCOC(=O)Cn1c(=O)n(C2CCCCC2)c2nc(-c3ccc(CC)cc3)nc(C(N)=O)c21
1.0%,CCOc1cc2c(cc1OCC)C(CC(=O)O)N(C(=O)Nc1ccccc1C(F)(F)F)CC2 (stereo not drawn)
16.2%,CCCCN(Cc1cc2ccccc2[nH]c1=O)C(=O)c1cccc(Cl)c1
?,COC(=O)C(NC(=O)CCc1c(C)nc2cc(-c3cccc(F)c3)nn2c1C)C(C)C (stereo not drawn)
7.8%,Cc1nn(-c2ccccc2)c2c1N(CCCC(=O)NC(C)c1ccccc1)C(=O)CS2 (stereo not drawn)
1.3%,CCN(CC)S(=O)(=O)c1ccc2c(c1)N(CC(=O)N1CCN(c3cccc(C)c3C)CC1)C(=O)CO2
-2.2%,COc1ccc(-c2noc(-c3ccc(N4CCOCC4)c([N+](=O)[O-])c3)n2)cc1OC
-2.7%,CCc1ccc(NC(=O)CSC2=Nc3ccccc3C3=NC(CCC(=O)NCc4ccccc4)C(=O)N23)cc1 (stereo not drawn)
-3.2%,Cn1c(=O)c(=O)n(C)c2cc(N3CCCC3)c(NC(=O)c3ccccc3Cl)cc21
-2.1%,COc1ccc(-c2nc(CN3CCC(C(=O)NCc4ccc(F)cc4)CC3)c(C)o2)cc1OC
16.6%,COc1ccc(C)cc1NC(=O)C(=O)NCC1(c2ccccc2)CCCC1
-4.8%,CCOc1ccc(NC(=O)c2cc(-c3ccc(C)c(F)c3)on2)c([N+](=O)[O-])c1
-41.5%,COc1ccc(OCc2nc3ccccc3n2Cc2ccc(C(C)(C)C)cc2)cc1
-1.1%,CCn1c(=O)c(=O)n(CC)c2cc(N3CCCCC3)c(NC(=O)c3ccccc3OC)cc21
-1.7%,CC(C)CN(CCCNC(=O)c1cc(=O)[nH]c2ccc(S(=O)(=O)N3CCCCCC3)cc12)CC(C)C
1.4%,COc1ccc(Nc2nnc(-c3cc4c(ccc5ccccc54)oc3=O)s2)cc1
7.7%,Cc1oc(-c2ccc(Cl)cc2)nc1CN1CCCC(C(=O)NCCc2ccc(Cl)cc2)C1 (stereo not drawn)
12.2%,CC1CCc2nc(NC(=O)COc3ccc(C(C)(C)C)cc3)sc2C1 (stereo not drawn)
14.7%,Cc1ccc(CNS(=O)(=O)c2ccc(N3CCCCS3(=O)=O)cc2)cc1
-7.2%,COc1ccccc1C(=O)NCC1(N2CCN(C)CC2)CCCCC1
?,CCc1ccccc1S(=O)(=O)Cc1ccc(C(=O)NCCc2ccc(Cl)cc2)o1
-12.7%,CCOC(=O)c1c(C)sc(-c2c(-c3ccc(OC)c(F)c3)[nH]c3c2c(=O)[nH]c(=O)n3C)c1O
-15.1%,Nc1ccc(S(=O)(=O)NC2(C(F)(F)F)NC(=O)N(c3cccc(Cl)c3)C2=O)cc1 (stereo not drawn)

Shown field by field: part of the list above.
SMILES: COc1ccc(-c2noc(-c3ccc(N4CCOCC4)c([N+](=O)[O-])c3)n2)cc1OC
- miR-21 FLuc: -2.2%

SMILES: CCn1c(=O)c(=O)n(CC)c2cc(N3CCCCC3)c(NC(=O)c3ccccc3OC)cc21
- miR-21 FLuc: -1.1%

The main list resumes; the 3 compounds before the break are reprinted first.
miR-21 FLuc,Structure
?,CCc1ccccc1S(=O)(=O)Cc1ccc(C(=O)NCCc2ccc(Cl)cc2)o1
-12.7%,CCOC(=O)c1c(C)sc(-c2c(-c3ccc(OC)c(F)c3)[nH]c3c2c(=O)[nH]c(=O)n3C)c1O
-15.1%,Nc1ccc(S(=O)(=O)NC2(C(F)(F)F)NC(=O)N(c3cccc(Cl)c3)C2=O)cc1 (stereo not drawn)
?,CCOC(=O)c1cnc2ccc(C)cc2c1NCCc1ccc(OC)c(OC)c1
5.0%,CCc1ccc2ncc3c(-c4ccc(F)cc4)nn(CC(=O)NCc4ccccc4)c3c2c1
3.5%,Cc1cccc(OCC(=O)Nc2ccccc2OCc2cc(=O)n3cc(C)ccc3n2)c1
-5.7%,CCCCNC(=O)c1ccc(-c2nc(CS(=O)(=O)c3ccc(C)cc3)c(C)o2)cc1
0.4%,CC(C)CC(=O)NC1(C(F)(F)F)C(=O)Nc2c1c(=O)[nH]c(=O)n2-c1ccccc1 (stereo not drawn)
10.4%,Cc1ccc(C)c(CN2C(=O)c3ccccc3S(=O)c3ccc(C(=O)NCCc4ccc(Cl)cc4)cc32)c1 (stereo not drawn)
-1.8%,Cc1ccc(-c2cc(C(=O)Nc3c(C(=O)c4ccc(C)c(F)c4)oc4ccccc34)no2)cc1
10.5%,CC(C)N(Cc1ccccc1)C(=O)CCS(=O)(=O)c1cc2c(cc1Cl)NC(=O)CO2
6.3%,Cn1c(SCc2ccc(F)cc2)nc2c([nH]c3ccccc32)c1=O
0.9%,CCOC(=O)c1c(C)n(-c2ccccc2)c2ccc(OC(=O)COc3ccccc3)cc12
11.7%,Cc1cc(C)c2nc(NC(=O)c3ccc(S(=O)(=O)N4CCC(C)CC4)cc3)sc2c1
-2.3%,Cc1c(Cl)cccc1-n1ncc(C(=O)N2CCOCC2)c1C1CCN(C(=O)OC(C)(C)C)CC1
-19.0%,COc1ccc(C(=O)Nc2cccc(C(=O)OCc3cc(=O)n4c5c(sc4n3)CCCC5)c2)cc1
0.4%,CCCn1c(=N)c(C(=O)NCC2CCCO2)cc2c(=O)n3cc(C)ccc3nc21 (stereo not drawn)
14.6%,CCCc1cc(N2CCN(c3cc(Cl)ccc3C)CC2)n2cnnc2n1
-11.0%,O=Cc1coc2c(ccc3ccccc32)c1=O
-1.0%,CCc1ccc(C2=CC(c3cccc(Br)c3)n3nnnc3N2)cc1 (stereo not drawn)
-22.2%,CCOC(=O)c1ccccc1NC(=O)CCOc1ccccc1
-2.3%,COc1cc(C(=O)Nc2cccc(OCc3cc(=O)n4cc(C)sc4n3)c2)cc(OC)c1OC
-7.2%,COc1ccc(S(=O)(=O)Nc2cc(-c3cn4ccccc4n3)ccc2C)cc1
0.6%,Cc1c2cnn(-c3ccccc3)c(=O)c2c(C)n1CC(=O)NCc1ccc(Cl)cc1
0.1%,COc1ccc(Cl)cc1NC(=O)c1nn(C)c2c1CS(=O)(=O)c1ccccc1-2
8.4%,N#Cc1c(-c2ccccc2)cc(-c2ccccc2)nc1SCC(O)CS(=O)(=O)Cc1ccccc1 (stereo not drawn)
-34.5%,CC(C)CC(=O)Nc1cccc(-c2cn3cccnc3n2)c1
-0.4%,CCOC(=O)c1ccccc1NC(=O)CSc1ncc2c(n1)-c1ccccc1N(CC)S2(=O)=O
28.4%,CCOc1ccc(-c2nc(CSCC(=O)NCc3ccc(Cl)cc3)c(C)o2)cc1
-3.7%,Cn1c(=O)c2nc3ccc(NC(=O)C(F)(F)F)cc3nc2n(C)c1=O
-7.3%,CC(C)Oc1ccc(C(=O)Nc2nc3c(s2)CC(C(C)(C)C)CC3)cc1 (stereo not drawn)
-10.0%,Cc1ccc(-c2cc(C(=O)N(Cc3ccc(C(C)(C)C)cc3)Cc3ccco3)no2)cc1
3.0%,Cc1cccc(NC(=O)c2sc3nc4c(cc3c2N)CN(Cc2ccccc2)CC4)c1

Not all compounds are listed (hit frequency here may not be typical).
